# High-throughput results (PubChem BioAssay)
# NOMO-1 viab: STK33 inhibitor candidate reducing NOMO-1 cell viability. NOMO-1 AML viability, CellTiter-Glo luminescence, 72 h. inhibition, % (no concentration beside the values). hit rate 7.5% among 37,000;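 active means most replicates above 80%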;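 further: wells of about 30 µL received 25 nL stock; 0% = median of vehicle wells and 100% = reference inhibitor level; the first replicate is given; inactives centre near 10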
# Starred values were filed as active, the others as inactive.
No.	mol	NOMO-1 viab
1	C[C@@H]1CN([C@H](C)CO)C(=O)Cc2cc(NC(=O)CCN3CCOCC3)ccc2O[C@H]1CN(C)C(=O)Nc1ccccc1	7.5
2	C[C@H](CO)N1C[C@H](C)[C@H](CN(C)Cc2ccccc2)Oc2ccc(NC(=O)Nc3ccc(C(F)(F)F)cc3)cc2C1=O	91.3*
3	C[C@@H]1CN([C@H](C)CO)C(=O)c2cccc(NC(=O)c3ccncc3)c2O[C@@H]1CN(C)S(=O)(=O)c1cn(C)cn1	-14.4
4	CCOC(=O)c1c(NC(=O)C2C3C=CC(C3)C2(C)C(=O)O)sc2c1CCCC2 (configuration not stated)	31.0
5	COc1ccccc1NC(=O)CSC1CC(=O)N(c2ccc(F)cc2)C1=O (configuration not stated)	3.9
6	CNC[C@H]1Oc2ccc(NC(=O)Nc3ccc(F)cc3)cc2C(=O)N([C@H](C)CO)C[C@@H]1C	23.6
7	COc1ccc(CN(C)C[C@@H]2Oc3ccc(NC(=O)Cc4cn(C)c5ccccc45)cc3CC(=O)N([C@H](C)CO)C[C@@H]2C)cc1	34.4
8	C[C@@H]1CN([C@@H](C)CO)C(=O)Cc2cc(N(C)C)ccc2O[C@@H]1CN(C)C(=O)Nc1ccccc1	14.9
9	COc1ccc(NC(=O)N(C)C[C@H]2Oc3ccc(NS(C)(=O)=O)cc3CC(=O)N([C@H](C)CO)C[C@H]2C)cc1	32.6
10	Cc1cccc(OCC(=O)Nc2cccc(-c3nnc(-c4ccccc4)o3)c2)c1	27.7
11	Cc1ccc(NC(=O)COc2ccccc2)c(NC(=O)c2cccs2)c1	8.6
12	C[C@@H]1CN([C@H](C)CO)C(=O)c2cc(NS(=O)(=O)c3ccc(Cl)cc3)ccc2O[C@@H]1CN(C)C(=O)Nc1ccc(F)cc1	2.2
13	CN(CC(=O)Nc1cc(Cl)ccc1O)S(=O)(=O)c1ccc(Cl)cc1	26.2
14	C[C@H]1CN([C@@H](C)CO)C(=O)Cc2cc(NS(C)(=O)=O)ccc2O[C@@H]1CN(C)C(=O)Nc1ccccc1	-0.4
15	Cc1noc(C)c1S(=O)(=O)Nc1ccc2c(c1)C(=O)N([C@H](C)CO)C[C@H](C)[C@@H](CN(C)Cc1ccc(C(=O)Nc3ccccc3N)cc1)O2	25.1
16	C[C@H](CO)N1C[C@H](C)[C@H](CN(C)C(=O)Nc2ccc3c(c2)OCO3)Oc2ccc(NC(=O)Nc3cccc4ccccc34)cc2CC1=O	17.3
17	CC(C)C(NCCC(O)c1ccc(Br)cc1)C(=O)O (configuration not stated)	-19.5
18	C[C@H]1CN([C@@H](C)CO)C(=O)Cc2cc(NS(=O)(=O)c3ccc(Cl)cc3)ccc2O[C@H]1CN(C)C(=O)Nc1cccc2ccccc12	16.8
19	C[C@@H]1CN([C@@H](C)CO)C(=O)c2cccc(NC(=O)CCCCCC(=O)Nc3ccccc3N)c2O[C@@H]1CN(C)CC1CCCCC1	124.8*
20	O=C(Nc1sc2c(c1C(=O)NCc1ccco1)CCCC2)c1ccccc1[N+](=O)[O-]	29.9
21	Cc1ccc(NC(=O)C2C3C=CC(C3)C2C(=O)O)cc1 (configuration not stated)	-5.3
22	COc1ccc(NC(=O)N(C)C[C@H]2Oc3c(cccc3N(C)C)C(=O)N([C@@H](C)CO)C[C@H]2C)cc1	10.8
23	CCOC(=O)CSc1ncnc2c1sc1nc3c(cc12)COC(C)(C)C3	-6.9
24	Cc1noc(C)c1NC(=O)N(C)C[C@@H]1Oc2ccc(NC(=O)Cn3cnnn3)cc2C(=O)N([C@@H](C)CO)C[C@H]1C	5.1
25	C[C@H]1CN([C@@H](C)CO)C(=O)c2cccc(NC(=O)C3CC3)c2O[C@@H]1CN(C)Cc1ccc(Cl)c(Cl)c1	38.6
26	Cc1ccc(-c2csc(Cc3nc(-c4cc5ccccc5oc4=O)cs3)n2)cc1	45.0
27	C[C@@H]1CN([C@@H](C)CO)C(=O)c2cccc(NC(=O)c3ccc(-c4nccs4)cc3)c2O[C@H]1CN(C)S(=O)(=O)c1ccc(Cl)cc1	-0.4
28	C[C@H]1CN([C@@H](C)CO)C(=O)c2cc(NC(=O)CCCN(C)C)ccc2O[C@H]1CN(C)S(=O)(=O)c1ccc(Cl)cc1	8.5
29	C[C@@H]1CN([C@H](C)CO)C(=O)c2cc(NC(=O)Nc3ccc(C(F)(F)F)cc3)ccc2O[C@@H]1CN(C)CC1CCCCC1	126.2*
30	O=C(OCc1ccccc1[N+](=O)[O-])c1cccc(-c2nnc(-c3ccccc3)o2)c1	4.4

# Another view of some results above.
1) C[C@@H]1CN([C@H](C)CO)C(=O)Cc2cc(NC(=O)CCN3CCOCC3)ccc2O[C@H]1CN(C)C(=O)Nc1ccccc1
  NOMO-1 viab: 7.5
2) C[C@H](CO)N1C[C@H](C)[C@H](CN(C)Cc2ccccc2)Oc2ccc(NC(=O)Nc3ccc(C(F)(F)F)cc3)cc2C1=O
  NOMO-1 viab: 91.3*
3) C[C@@H]1CN([C@H](C)CO)C(=O)c2cccc(NC(=O)c3ccncc3)c2O[C@@H]1CN(C)S(=O)(=O)c1cn(C)cn1
  NOMO-1 viab: -14.4
4) CCOC(=O)c1c(NC(=O)C2C3C=CC(C3)C2(C)C(=O)O)sc2c1CCCC2 (configuration not stated)
  NOMO-1 viab: 31.0

# Other results follow:
No.	mol	NOMO-1 viab
31	Cc1nnc(SCC(=O)Nc2cc(Cl)cc(Cl)c2)n1-c1ccccc1	6.2
32	CC(C)NC(=O)Nc1ccc2c(c1)CC(=O)N([C@@H](C)CO)C[C@H](C)[C@H](CN(C)Cc1ccncc1)O2	0.1
33	CC(C)NC(=O)Nc1ccc2c(c1)C(=O)N([C@H](C)CO)C[C@H](C)[C@@H](CN(C)C(=O)Nc1cccc3ccccc13)OCCCC[C@@H](C)O2	40.4
34	C[C@H](CO)N1C[C@H](C)[C@H](CN(C)S(=O)(=O)c2ccccc2)Oc2c(NC(=O)Nc3ccc(C(F)(F)F)cc3)cccc2C1=O	29.0
35	COc1ccc(NC(=O)C2CCCN(S(=O)(=O)c3ccc(C)cc3)C2)cc1OC (configuration not stated)	17.0
36	Cc1noc(C)c1NC(=O)N(C)C[C@H]1Oc2ccc(NC(=O)C3CCCCC3)cc2CC(=O)N([C@@H](C)CO)C[C@H]1C	-17.3
37	CCn1c(SCC(=O)c2cccc([N+](=O)[O-])c2)nnc1-c1ccccc1F	2.1
38	O=C(CSc1nnc(-c2ccc(Cl)cc2)o1)c1cccc([N+](=O)[O-])c1	35.8
39	O=C(c1cccs1)n1nc(-c2ccc(Cl)cc2)nc1NCc1ccco1	45.7
40	C[C@H](CO)N1C[C@H](C)[C@H](CN(C)Cc2ccncc2)Oc2c(NC(=O)Nc3ccccc3)cccc2C1=O	19.4
41	Cc1ccc(S(=O)(=O)N(C)C[C@H]2Oc3c(NS(=O)(=O)c4ccc(F)cc4)cccc3C(=O)N([C@H](C)CO)C[C@@H]2C)cc1	14.6
42	COc1ccc(C2NC(=S)NC(C)=C2C(=O)Nc2cc(OC)c(Cl)cc2OC)c(OC)c1 (configuration not stated)	16.0
43	Cc1noc(C)c1NC(=O)N(C)C[C@H]1Oc2ccc(NS(=O)(=O)c3cn(C)cn3)cc2CC(=O)N([C@@H](C)CO)C[C@@H]1C	0.7
44	C[C@@H]1CN([C@H](C)CO)C(=O)Cc2cc(NC(=O)Cn3cnnn3)ccc2O[C@@H]1CN(C)C(=O)Nc1cccc2ccccc12	-4.3
45	COc1ccc(OCC(=O)Nc2cccc(-c3nnc4c5ccccc5c(C)nn34)c2)cc1	62.8
46	C[C@H]1CN([C@@H](C)CO)C(=O)c2cccc(NS(C)(=O)=O)c2O[C@@H]1CN(C)C(=O)Nc1ccc(F)cc1	-0.5
47	COc1ccc(S(=O)(=O)N(C)CC(=O)Nc2ccc3c(c2)OCCO3)cc1C	3.9
48	FC(F)(F)C1(C(F)(F)F)N=C(c2ccccc2)OC(N2CCCCC2)=N1	51.0
49	COc1cc(NC(=O)COc2ccc(I)cc2)c(C(=O)O)cc1OC	1.5
50	C[C@@H]1CN([C@@H](C)CO)C(=O)c2cc(NC(=O)Cc3cn(C)c4ccccc34)ccc2O[C@@H]1CN(C)C(=O)Nc1cccc2ccccc12	125.1*
51	COc1cccc(NC(=O)CCc2nc(-c3ccc(OC)c(OC)c3)no2)c1	2.4
52	O=C(NCCCNc1ccc(C(F)(F)F)cc1[N+](=O)[O-])c1ccc(F)cc1	-21.6
53	Cc1ccc(-c2csc3nnc(SCC(=O)c4ccc(Cl)c(Cl)c4)n23)cc1	103.2*
54	C[C@@H]1CN([C@H](C)CO)C(=O)c2cccc(NC(=O)Nc3ccc(F)cc3)c2O[C@H]1CN(C)C(=O)Nc1cccc2ccccc12	33.6
55	COC(=O)Cc1cc(=O)n(-c2nc3ccccc3s2)[nH]1	20.4
56	COc1ccc(S(=O)(=O)Nc2ccc3c(c2)C(=O)N([C@H](C)CO)C[C@H](C)[C@H](CN(C)C(=O)c2ccccc2)OCCCC[C@@H](C)O3)cc1	3.2
57	COc1ccccc1NC(=O)c1ccc(OCC(=O)Nc2cc(Cl)cc(Cl)c2)cc1	85.7*
58	COc1ccc(NC(=O)N(C)C[C@@H]2Oc3c(NC(=O)c4cnccn4)cccc3C(=O)N([C@@H](C)CO)C[C@H]2C)cc1	6.2
59	C[C@@H]1CN([C@H](C)CO)C(=O)c2cc(NC(=O)Nc3ccc4c(c3)OCO4)ccc2O[C@@H]1CN(C)CC1CCCCC1	38.7
60	O=C(COc1ccc([N+](=O)[O-])cc1)Nc1ccncc1	5.3

# Grouped by structure, the entries above containing a furan ring, fused or not (2)
No.	mol	NOMO-1 viab
20	O=C(Nc1sc2c(c1C(=O)NCc1ccco1)CCCC2)c1ccccc1[N+](=O)[O-]	29.9
39	O=C(c1cccs1)n1nc(-c2ccc(Cl)cc2)nc1NCc1ccco1	45.7

# Remaining list, next part.
No.	mol	NOMO-1 viab
61	C[C@@H]1CN([C@H](C)CO)C(=O)c2cc(NC(=O)c3ccncc3)ccc2O[C@H]1CN(C)C(=O)Nc1ccc(F)cc1	19.0
62	Cc1ccc(C)c(-n2nnnc2SCC(=O)Nc2ccc(F)cc2)c1	15.4
63	C[C@@H]1CN([C@H](C)CO)C(=O)Cc2cc(NC(=O)CCN3CCOCC3)ccc2O[C@H]1CN(C)CC1CCCCC1	16.3
64	CCOC(=O)c1cnc2c(C(F)(F)F)cccc2c1NCCCN1CCOCC1	8.8
65	C[C@H](CO)N1C[C@H](C)[C@H](CN(C)S(=O)(=O)c2cn(C)cn2)Oc2ccc(NS(=O)(=O)c3ccc(F)cc3)cc2C1=O	-3.8
66	NC(=S)NC1CC2C=CC1C2 (configuration not stated)	-6.0
67	CCC(C)Sc1n[nH]c(=S)s1 (configuration not stated)	7.7
68	CNC[C@@H]1Oc2ccc(NC(=O)Nc3ccc(F)cc3)cc2C(=O)N([C@@H](C)CO)C[C@@H]1C	23.5
69	C[C@@H]1CN([C@H](C)CO)C(=O)c2cccc(N(C)C)c2O[C@@H]1CN(C)C(=O)Nc1ccccc1	-14.4
70	CCOc1ccc(NC(=O)C(C)O)c([N+](=O)[O-])c1 (configuration not stated)	-19.0
71	CCCC1=C(C(=O)OCC)C(c2ccco2)n2ncnc2N1 (configuration not stated)	-1.8
72	COc1ccc(NC(=O)N(C)C[C@@H]2Oc3ccc(NC(=O)Cc4ccccc4)cc3C(=O)N([C@@H](C)CO)C[C@@H]2C)cc1	-0.2
73	CCOC(=O)c1ccc(CNS(=O)(=O)c2c(C)ccc3nsnc23)o1	-13.6
74	COc1ccc(Cl)cc1NC(=O)CC(C(=O)O)N1CCNCC1 (configuration not stated)	6.9
75	COc1ccc(S(=O)(=O)N(C)C[C@@H]2Oc3ccc(NC(=O)C4CC4)cc3C(=O)N([C@H](C)CO)C[C@@H]2C)cc1	2.0
76	C[C@H]1CN([C@@H](C)CO)C(=O)c2cc(NC(=O)CCCN(C)C)ccc2O[C@@H]1CN(C)S(=O)(=O)c1ccc(F)cc1	-2.6
77	CSc1nnc(-c2cc(Cl)ccc2NC(C)=O)c(=O)[nH]1	9.9
78	C[C@@H]1CN([C@H](C)CO)C(=O)Cc2cc(NC(=O)Nc3ccc4c(c3)OCO4)ccc2O[C@@H]1CN(C)S(=O)(=O)c1cn(C)cn1	-5.7
79	COC(=O)c1ccccc1NC(=O)c1ccc(N(C)S(=O)(=O)c2ccc(OC)c(OC)c2)cc1	5.9
80	C[C@@H]1CN([C@H](C)CO)C(=O)c2cc(NS(C)(=O)=O)ccc2O[C@@H]1CN(C)CC1CCCCC1	-6.9
81	Cc1ccc(S(=O)(=O)Nc2ccc3c(c2)C(=O)N([C@H](C)CO)C[C@@H](C)[C@H](CN(C)Cc2ccncc2)O3)cc1	16.9
82	C[C@@H]1CN([C@H](C)CO)C(=O)c2cccc(NS(=O)(=O)c3cccs3)c2O[C@H]1CN(C)S(=O)(=O)c1ccc(F)cc1	-16.0
83	CC(C)NC(=O)N(C)C[C@@H]1Oc2ccc(NC(=O)Nc3ccc4c(c3)OCO4)cc2CC(=O)N([C@H](C)CO)C[C@H]1C	11.5
84	CCn1c(SCC(=O)Nc2ccc([N+](=O)[O-])cc2C)nnc1-c1ccc(Br)cc1	-0.6
85	C[C@H](CO)N1C[C@H](C)[C@H](CN(C)CC2CC2)Oc2ccc(NS(=O)(=O)c3ccc(F)cc3)cc2C1=O	22.6
86	C[C@H]1CN([C@@H](C)CO)C(=O)Cc2cc(N(C)C)ccc2O[C@H]1CN(C)Cc1ccc(C(=O)Nc2ccccc2N)cc1	140.9*
87	C[C@@H]1CN([C@@H](C)CO)C(=O)c2cccc(NC(=O)CCCCCC(=O)Nc3ccccc3N)c2O[C@H]1CN(C)CC1CCCCC1	137.9*
88	COc1ccc(NC(=O)Nc2ccc3c(c2)C(=O)N([C@@H](C)CO)C[C@@H](C)[C@H](CN(C)Cc2ccc(Cl)c(Cl)c2)O3)cc1	39.3
89	C[C@@H]1CN([C@@H](C)CO)C(=O)Cc2cc(NC(=O)Nc3cccc4ccccc34)ccc2O[C@@H]1CN(C)CC1CCCCC1	117.3*

# These rows are one share of the data; the hit share may differ from the screen's.
